Screening results deposited in PubChem BioAssay by Sanford-Burnham Center for Chemical Genomics.
HNF4A DNA FP – change in binding of human HNF4A to DNA, primary screen, biochemical, fluorescence polarization, FITC-DNA. activity change, % at 10 µM. Hepatocyte nuclear factor 4-alpha (Homo sapiens), P41235. hit rate 0.3% among 360,000. AID 1224865, 2016. 1 h; in the data active = activity change above about 30%, passing the limit was not always enough;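 note: controls were the assay level and a saturating level of protein; the project sought stronger binding though the title names inhibitors; some compounds called inactive have numbers as strong as hits; positive values seem to mean higher polarization but the record does not say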
Target sequence (P41235 whole entry, looked up): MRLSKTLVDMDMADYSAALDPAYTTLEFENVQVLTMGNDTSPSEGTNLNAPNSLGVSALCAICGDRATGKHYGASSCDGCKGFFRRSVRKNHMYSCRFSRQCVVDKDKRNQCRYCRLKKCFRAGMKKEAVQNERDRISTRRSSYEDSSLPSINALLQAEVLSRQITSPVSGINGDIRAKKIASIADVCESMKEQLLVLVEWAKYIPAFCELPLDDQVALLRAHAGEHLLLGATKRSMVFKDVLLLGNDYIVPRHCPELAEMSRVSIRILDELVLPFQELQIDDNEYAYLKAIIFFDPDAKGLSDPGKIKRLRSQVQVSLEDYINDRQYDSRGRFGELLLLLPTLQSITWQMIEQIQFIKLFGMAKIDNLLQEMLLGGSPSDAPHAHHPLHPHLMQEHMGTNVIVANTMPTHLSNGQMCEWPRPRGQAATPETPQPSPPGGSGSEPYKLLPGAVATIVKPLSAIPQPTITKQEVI
Starred values were filed as active, the others as inactive.

SMILES	HNF4A DNA FP
C[C@H](CO)N1C[C@H](C)[C@@H](CN(C)S(=O)(=O)c2ccc(Oc3ccccc3)cc2)OCc2cn(nn2)CCCC1=O	-0.5
O=C(Nc1nnc([C@H]2C[C@H](O)[C@@H](CO)O2)s1)Nc1cccc(Cl)c1Cl	2.5
c1ccc2c(c1)oc1c(-c3ccc4nccn4c3)cccc12	0.7
CCOC(=O)c1cc(OC)c2cccc(CN3CCC(C)(C(=O)NCCOC)C3)c2c1 (stereo unspecified)	-26
Cn1c(=O)c2c(-c3ccccc3)n(-c3cccc(O)c3)cc2n(C)c1=O	-0.9
COc1cc(NC(=O)Nc2nnc([C@H]3C[C@H](O)[C@@H](CO)O3)s2)cc(OC)c1OC	3.7
C[C@H](NC(=O)[C@@H]1CCCN1C(=O)[C@@H]1CCCN1)c1ccccc1	1.4
COC(=O)c1ccc2nc(-c3ccccc3)c(Cc3ccccc3C(F)(F)F)n2c1	0.5
CC1(C(=O)NS(=O)(=O)c2cccs2)CCN1C(=O)C1(c2ccccc2)CCCC1 (stereo unspecified)	-0.2
COc1cc2c(cc1OC)/C(=C/C(C)=O)OC2	6.4
COc1ccc(-c2ccc(SCC(=O)NC3CCCC3)nn2)cc1	-4.5
COc1ccc(C(C)(O)c2nc(-c3ccc(F)cc3OC)cs2)cc1 (stereo unspecified)	-4.7

Quoted from above, 2 compounds:
SMILES	HNF4A DNA FP
COc1ccc(-c2ccc(SCC(=O)NC3CCCC3)nn2)cc1	-4.5
COc1ccc(C(C)(O)c2nc(-c3ccc(F)cc3OC)cs2)cc1 (stereo unspecified)	-4.7

Later entries
SMILES	HNF4A DNA FP
O=C(/C=C/[C@H]1O[C@@H](n2ccc(=O)[nH]c2=O)[C@H](O)[C@@H]1O)NCCN1CCCC1	-1.4
Cc1cc(C(=O)N2CCC2(C)C(=O)NS(=O)(=O)c2ccc(F)cc2F)nn1C (stereo unspecified)	-3.8
O=C1NC[C@H](CCCCN2C[C@H](Cc3ccccc3)N(CC3CCCCC3)C(=O)C2=O)N(CCc2ccc(O)cc2)C1=O	2.4
COc1ncccc1C(=O)Nc1c(-c2ccccc2)[nH][nH]c1=O	-2.5
O=C(CN1C(=O)c2ccccc2C1=O)NC1CCS(=O)(=O)C1 (stereo unspecified)	-1.7
CCCc1nc2ccc(Cl)cn2c1Cc1cccc(Cl)c1	1.1
CCOC(=O)C1CCCN(C(=O)c2ccc(F)c(Cl)c2)CC1 (stereo unspecified)	2.6
CC1(C(=O)Nc2ccc3c(c2)OCO3)CCN1Cc1cccc2c1OCO2 (stereo unspecified)	3.7
CCCS(=O)(=O)NC(=O)C1(C)CCCN(C(=O)c2cccc(C)c2C)C1 (stereo unspecified)	-2.5
O=C(C[C@@H]1C=C[C@H](NS(=O)(=O)c2ccccc2F)[C@@H](CO)O1)NCCCN1CCOCC1	-0.3
CCCNC(=O)C1(C)CCN(C(=O)c2ccccc2F)C1 (stereo unspecified)	2.3
CC(C)n1c(=O)c2ccccc2n1Cc1cn(Cc2ccccc2)nn1	1.1
Cc1ccc(C)c(CC(=O)N2CCCCC2c2cc(C(=O)Nc3ccc(F)c(Cl)c3)no2)c1 (stereo unspecified)	2.5
Cc1ccccc1-c1cnc(C(O)c2ccc(F)cc2)[nH]1 (stereo unspecified)	-1.0
COc1ccc(-c2csc(C(O)c3cccc(Cl)c3)n2)cn1 (stereo unspecified)	3.0
O=C(Nc1nnc([C@@H]2C[C@H](O)[C@@H](CO)O2)s1)c1cccs1	-1.5
COc1ccc(Cl)cc1NC(=O)CN(C)C(=O)c1cn(-c2ccccc2)nc1-c1cccs1	3.8
CC(C)C[C@H]1CN(CCCC[C@H]2CNC(=O)C(=O)N2Cc2ccccc2)C(=O)C(=O)N1CC1CCCCC1	-1.0
COc1ccc(-c2cccc(N3CCN(c4ccccn4)CC3)n2)cc1OC	3.1
COc1cc(OC)nc(Nc2nc(C(N)Cc3ccc(F)cc3)cs2)n1 (stereo unspecified)	1.6
COc1cccc(CNc2nc3cc(-c4ccc(C)cc4)sc3c(=O)n2C)c1OC	-1.1
CN1CCN(c2ccc(CNC(=O)c3cccc4c(-c5ccc(F)c(F)c5)coc34)cc2)CC1	1.3
CCC(C(=O)NC(C)(C)C)n1c(-c2ccc(C)cc2)nc2ccccc21 (stereo unspecified)	0.7
CC(O)(c1ccc(F)c(F)c1)c1nc(-c2cc3ccccc3o2)cs1 (stereo unspecified)	1.1

Shown as a markdown table: part of the list above.
| compound | HNF4A DNA FP |
| --- | --- |
| COc1ncccc1C(=O)Nc1c(-c2ccccc2)[nH][nH]c1=O | -2.5 |
| O=C(CN1C(=O)c2ccccc2C1=O)NC1CCS(=O)(=O)C1 (stereo unspecified) | -1.7 |
| CCCc1nc2ccc(Cl)cn2c1Cc1cccc(Cl)c1 | 1.1 |
| CCOC(=O)C1CCCN(C(=O)c2ccc(F)c(Cl)c2)CC1 (stereo unspecified) | 2.6 |

Going on with the list:
SMILES	HNF4A DNA FP
CSc1ccccc1-c1cnc2cccnn12	-3.0
CCCNC(=O)c1cc(C2CCCCN2S(=O)(=O)c2ccc(C#N)cc2)on1 (stereo unspecified)	8.6
O=C(NCc1ccc2c(c1)OCO2)OCc1ccccc1	-0.4
COC(=O)[C@@]12C[C@@H](CC(=O)N3CCOCC3)C(=O)N(Cc3ccccc3)C1=CCC(C)(C)C2	-0.5
Cc1ccc(-c2nc3ccc(C)cn3c2CC2CCCCC2)cc1	15
CCOC(=O)C1(C)CCCN(C(=O)c2ccc(-c3ccccc3)cc2)C1 (stereo unspecified)	-1.6
O=C(OCc1ccccc1)c1c(-c2ccccc2)oc2c1C(OCCO)CCC2 (stereo unspecified)	26
O=C(C[C@@H]1CC[C@@H](NC(=O)Nc2cccc(F)c2)[C@@H](CO)O1)NCC1CCCCC1	2.4
NS(=O)(=O)c1ccc(CCNc2ccn3nc(-c4cccc(C(F)(F)F)c4)cc3n2)cc1	-3.1
COc1ccc(NC(=O)C2(C)CCN2Cc2ccccc2OC(F)F)cc1OC (stereo unspecified)	3.1
CCOC(=O)C1=CCN(S(=O)(=O)c2ccccc2C)C1c1ccccc1 (stereo unspecified)	-0.4
CCOc1ccccc1C(=O)NCC(=O)NNC(=O)c1csc(N2CCOCC2)n1	-4.2
Cn1c(=O)c2cc(NC(=O)NCc3ccccc3)ccc2n1Cc1ccc(Cl)cc1	-2.3
CCCC1NC(=O)c2cccnc2-n2c1nc1cc(F)c(F)cc1c2=O (stereo unspecified)	2.5
O=S1(=O)CC(N2CCSCC2)CN1Cc1cn(Cc2ccc(F)cc2)nn1 (stereo unspecified)	4.1
CCC(=O)N1CCC(C)(C(=O)Nc2cc(OC)c(OC)c(OC)c2)C1 (stereo unspecified)	-1.9
C=CCNc1ncnc2c1ncn2[C@H]1CN(Cc2cccs2)C[C@@H](CO)O1	-1.2
O=C(OCc1ccccc1)N1C=CCC[C@@H]1c1c(Cl)cccc1Br	2.1
COc1ccc(-c2csc(C(O)c3ccccc3)n2)cn1 (stereo unspecified)	1.8
COc1ccc(OC)c(CN2C(=O)c3ccccc3C2c2nnnn2-c2ccc3c(c2)OCCO3)c1 (stereo unspecified)	-0.8
O=C(NCc1cccnc1)c1ccc2sc([C@@H]3O[C@H](CO)[C@H](O)[C@H](O)[C@H]3O)nc2c1	-3.0
COc1ccc(OC)c(C(O)c2ncc(-c3ccccc3OC)[nH]2)c1 (stereo unspecified)	-0.1
C(=C\c1ccccc1)/CN1CCN(C(CCc2ccccc2)c2nnnn2-c2ccc3c(c2)OCCO3)CC1 (stereo unspecified)	5.7
O=C1O[C@@H](c2ccccc2)C[C@@H](O)C(=O)CCc2ccccc21	0.0
COc1ccc(S(=O)(=O)Nc2ccc3c(c2)C(=O)N([C@H](C)CO)C[C@H](C)[C@@H](CN(C)C(=O)Nc2c(C)noc2C)OCCCC[C@H](C)O3)cc1	0.0
COC(=O)[C@@]12C[C@@H](CC(=O)NCc3cccc4ccccc34)C(=O)N(Cc3cccc4ccccc34)C1=CCC(C)(C)C2	3.1
O=C(NCc1ccccc1)C1C(c2ccccc2)=Nc2ccccc2N1C(=O)c1cccnc1 (stereo unspecified)	2.4
COc1ccc(C(C(=O)Nc2ccc(F)cc2)N2CCN(CC(=O)N3CCCC3)CC2)cc1 (stereo unspecified)	1.1
C=C1C[C@@H]2C[C@@H]2CN(S(=O)(=O)c2ccc(C)cc2)[C@@H]1c1ccco1	3.3
CCc1nc2ccc(C(=O)N(CC)CCN(C)C)cn2c1N(C)Cc1ccc(OC)cc1	-3.6
O=C(C[C@@H]1C[C@H]2c3cc(NC(=O)c4cccnc4)ccc3O[C@H]2[C@H](CO)O1)NCc1ccc(Oc2ccccc2)cc1	2.9
O=C(NC(c1ccccc1)c1cnccn1)C1CCN(CCCOc2ccccc2)CC1 (stereo unspecified)	5.3
O=C(Nc1ccc2c(c1)OCO2)C1Cc2c(-c3ccc(Cl)cc3)ccnc2O1 (stereo unspecified)	-1.0
Cc1cccc(C)c1C(O)c1ncc(-c2ccc(F)cc2)[nH]1 (stereo unspecified)	-5.6
O=C(Nc1ccc(Oc2ccccc2)cc1)c1csc(COCCO)n1	-2.3
O=C(Nc1ccc2c(c1)OCCO2)C(C1CC1)n1c(=O)c(-c2ccco2)nc2ccccc21 (stereo unspecified)	6.1
CC(C)(C)c1ccc(CC(=O)N2CCC2(C)C(=O)NS(=O)(=O)c2cccs2)cc1 (stereo unspecified)	7.0
COc1ccc(NC(=O)c2ccc3nc(C)c(N(C)C(=O)CCc4ccccc4)n3c2)cc1OC	1.4
CS(=O)(=O)c1ccc(Nc2nc(C(N)COCc3ccccc3)cs2)cc1 (stereo unspecified)	0.8
Cc1ccc(S(=O)(=O)NC(=O)C2(C)CCN2C(=O)CC2CCCCC2)nc1 (stereo unspecified)	-1.1
O=C1NC[C@H](Cc2ccc(O)cc2)N(C[C@@H]2CCCN2C[C@H](Cc2ccccc2)N2C[C@H](Cc3ccc(O)cc3)N(CC3CCCCCC3)C(=O)C2=O)C1=O	0.6
COc1cc(C(O)c2nc(-c3cc(F)cc(F)c3)cs2)ccc1F (stereo unspecified)	0.5
Cn1[nH]c2c(c1=O)[C@H](c1ccc(F)cc1)O[C@H](CCc1ccccc1)C2	2.1
CCOC(=O)C1=CCC(c2cccn2C(=O)OC(C)(C)C)N(S(=O)(=O)c2ccc(C)cc2)C1 (stereo unspecified)	4.3
CCCCOc1ccc(S(=O)(=O)NC(=O)C2(C)CCN2C(=O)Cc2ccccc2Cl)cc1 (stereo unspecified)	-1.9
COc1cccc(CNc2nc(NCC3CC3)nc3ccsc23)c1OC	-1.1
Cc1ccc(S(=O)(=O)C[C@@H]2OC3CCCCC3N2S(=O)(=O)c2ccc(C)cc2)cc1 (stereo partly specified)	1.8
CC(=O)NC(c1ccccc1)c1nc(-c2ccc(S(C)(=O)=O)cc2)cs1 (stereo unspecified)	1.7
CN(C)Cc1csc(Nc2ccc(C(=O)c3ccccc3)cc2)n1	2.2
CNc1nc(-c2cccc(C(=O)N(C)C)c2)cn2ccnc12	-0.2
CCOC(=O)[C@]12CCCC=C1N(Cc1ccc3c(c1)OCO3)C(=O)[C@H](CC(=O)NCc1cccs1)C2	-5.7
COc1cccc(CNc2nc3cc(-c4ccccc4)sc3c(=O)n2C)c1	-0.2
COc1ccccc1S(=O)(=O)N(C)C[C@H]1OCc2cn(nn2)CCCC(=O)N([C@@H](C)CO)C[C@@H]1C	-6.3
COc1ccc(NC(=O)c2cc(C3CCCCN3C(=O)c3ccc4c(c3)CCO4)on2)c(C)c1 (stereo unspecified)	-1.2
Clc1ccc2nc(-c3cccc(Br)c3)c(Cc3ccsc3)n2c1	3.3
CC(C)(C)c1ccc(C(=O)N2[C@H](COCc3ccccc3)C=CS2(=O)=O)cc1	0.2
Nc1nc2ccccc2n1S(=O)(=O)c1ccc([N+](=O)[O-])cc1	-1.1
CC1=NN(c2ccccc2)C(=O)C1CCC#N (stereo unspecified)	0.2
COCCNC(=O)C1(C)CCCN(C(=O)c2ccccc2)C1 (stereo unspecified)	2.2
O=C(c1ccc(-n2cncn2)c2ccoc12)N1CCOCC1	-5.8

(more compounds)
SMILES	HNF4A DNA FP
CSc1ccc(CN2CCC(C)(Oc3ccc(CC#N)cc3)C2)cc1 (stereo unspecified)	5.3
Cc1ccccc1NC(=O)Nc1nc(C(N)c2ccccc2)cs1 (stereo unspecified)	-0.7
C[C@H]1CN([C@@H](C)CO)C(=O)CCCn2nncc2CO[C@@H]1CN(C)C(=O)c1ccc(N2CCN(C)CC2)cc1	1.7
CC(=O)OC[C@@H]1CN(Cc2ccccc2)C[C@H](n2cnc3c(NCC(C)C)ncnc32)O1	1.7
Cc1ccc(C)c(NCCCCCCCC(=O)O)c1	0.4
CC(O)(c1ccc(F)c(F)c1)c1nc(-c2cnc3ccccc3c2)cs1 (stereo unspecified)	-3.4
CC(=O)c1ccc(OC2(C)CCN(Cc3cccn3-c3nccs3)C2)cc1 (stereo unspecified)	8.4
CCOC(=O)[C@]12CCCC=C1N(Cc1ccco1)C(=O)[C@H](CC(=O)NCCCCc1ccccc1)C2	-0.1
CC(C)NC(=O)C1Cc2c(-c3ccc(Cl)cc3)ccnc2O1 (stereo unspecified)	2.3
CCOC(=O)c1noc2c1CCC2	0.5
CCC(C)N(C(=O)COC(=O)c1ccc(N)c([N+](=O)[O-])c1)C1CCS(=O)(=O)C1 (stereo unspecified)	1.6

Gathered by group, those above containing bromine.
SMILES	HNF4A DNA FP
O=C(OCc1ccccc1)N1C=CCC[C@@H]1c1c(Cl)cccc1Br	2.1
Clc1ccc2nc(-c3cccc(Br)c3)c(Cc3ccsc3)n2c1	3.3

An excerpt; the hit share may differ from the screen's.
